Sa growth inh – S. aureus growth inhibition; 170,000 tested, 0.53% active; S. aureus RN4220 growth, OD600, 20 h, 42 °C; stronger effect = lower value; relative growth, % (no concentration beside the values);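 active means growth at 42 °C up to 50% and 20 or more points under that at 30 °C, or under 10% at both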;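 further: 300 nL library stock went into each well; scaled to the means of positive and negative controls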
GIV-Gai inh – blocks GIV peptide binding to rat Galpha-i3; percent of control (FP), % (test concentration not listed); P08753; 210,000 tested, 0.42% active; Galpha-i3/FITC-GIV peptide fluorescence polarization, 90 min; stronger effect = lower value; scaled: aluminum fluoride 0%, vehicle 100%; AID 1224905;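 active means replicate mean at 85% of control or lower, very high polarization wells dropped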;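 further: wells of about 15 µL received 100 nL stock; the first replicate is given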
Target sequence (P08753 whole entry, looked up): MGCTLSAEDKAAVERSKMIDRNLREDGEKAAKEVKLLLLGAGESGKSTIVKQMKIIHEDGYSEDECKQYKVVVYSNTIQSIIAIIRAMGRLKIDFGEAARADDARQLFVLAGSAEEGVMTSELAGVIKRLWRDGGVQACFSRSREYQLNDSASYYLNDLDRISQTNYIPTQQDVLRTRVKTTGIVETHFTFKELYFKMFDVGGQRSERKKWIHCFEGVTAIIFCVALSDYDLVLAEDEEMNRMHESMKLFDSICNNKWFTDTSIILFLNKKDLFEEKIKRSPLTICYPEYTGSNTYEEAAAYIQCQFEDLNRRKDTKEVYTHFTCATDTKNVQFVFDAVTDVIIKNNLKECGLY
HCMV NEC inh – cytomegalovirus nuclear egress complex inhibition; HTRF UL50-UL53 interaction, normalized percent inhibition; inhibition, % (no concentration beside the values); 190,000 tested, 0.15% active;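 active means both replicates at 50% or more, plus weaker picks with an unusually low signal ratio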;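 further: stock transfer was 100 nL into about 20 µL; 0% = negative control wells and 100% = wells with untagged competitor protein; inactives centre near -12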
Sa growth inh second temp – further read-out of Sa growth inh, marked with its call; relative growth, %; measured here: growth at 30 °C;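 optical density after 20 h as mean of two plates; 100% = untreated growth and lower means inhibition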
* marks the source's active call; other numbers are inactive results; · = not tested or not shown.

#1 CCCCN(CCCC)C1=C(C(=O)c2ccccc2)N(CC)S(=O)(=O)c2ccccc21
#2 CCN(Cc1ccccc1)C(=O)C(CC(C)C)NS(=O)(=O)c1ccc2c(c1)CCN2C(C)=O (configuration not stated)
#3 O=C(NCCc1nc(-c2ccccc2)no1)c1ccccc1Br
#4 CCOc1ccccc1NC(=O)Cn1c(=O)n(Cc2nc(C)no2)c(=O)c2ccccc21
#5 O=C(O)C1(C2CCC3OCOC3C2)SCCCS1 (configuration not stated)
#6 CCOC(=O)C1CCN(c2ncnc3c(C)csc23)CC1
#7 O=C(O)C1CCCN1C(=O)C12CC3CCC(CC(C3)C1)C2 (configuration not stated)
#8 O=C(Nc1ccc(-c2csnn2)cc1)c1ccc(Cl)cc1
#9 O=C(COC(=O)c1cccc(S(=O)(=O)N2CCCC2)c1)Nc1cccc(F)c1
#10 O=C(O)c1cc(-c2ccccc2)nc2c1cnn2Cc1ccncc1

compound no.	1	2	3	4	5	6	7	8	9	10
Sa growth inh second temp	30.4	91.9	·	86.5	87.8	82.3	90.0	52.7	94.3	90.9
GIV-Gai inh	104.1	103.8	103.9	103.4	·	95.8	·	96.4	·	·
Sa growth inh	24.2	103.9	·	108.0	80.4	93.9	112.3	94.8	101.6	104.9
HCMV NEC inh	-26.9	-32.2	-15.3	·	-7.5	-12.4	-3.3	-3.6	-17.7	-28.1

#11 Cc1cc(NCc2ccccc2)n2ncnc2n1
#12 S=C(NCc1ccccc1)c1ccccn1
#13 CC(OC(=O)/C=C/c1ccco1)C(=O)Nc1cccc(C(F)(F)F)c1 (configuration not stated)
#14 COc1ccc(Nc2[nH]nc(NC(=O)c3ccc(S(=O)(=O)N(C)C)cc3)c2C#N)cc1
#15 COc1ccc(/C=C/C(=O)NC2CC2)cc1
#16 O=C(CCSc1ccc(Cl)cc1)Nc1ccc(F)c(F)c1F
#17 O=C(OC1CCCCC1=O)C1CCN(S(=O)(=O)c2cccs2)CC1 (configuration not stated)
#18 O=C(Cc1ccc(Cl)cc1)Nc1ccccn1
#19 CC1CCCC(C)N1C(=O)Nc1ccc(Cl)c(Cl)c1 (configuration not stated)
#20 CSc1nnc(C2CCCN(C(=O)N(c3ccccc3)c3ccccc3)C2)n1C (configuration not stated)

compound no.	11	12	13	14	15	16	17	18	19	20
Sa growth inh second temp	83.8	90.2	97.5	85.2	104.8	99.8	85.9	77.1	75.1	73.1
GIV-Gai inh	·	·	·	·	108.1	·	·	104.7	·	102.8
Sa growth inh	87.6	110.5	98.7	78.7	103.7	105.3	87.0	91.3	94.0	75.3
HCMV NEC inh	-0.7	-12.5	0.4	-8.5	-24.7	11.3	-30.2	·	-16.0	-22.8

#21 O=C(CCCc1ccccc1)c1ccc2c(c1)OCCO2
#22 Cc1cc(S(=O)(=O)NCCc2sc(-c3ccc(Cl)cc3)nc2C)ccc1F
#23 CC(=O)Nc1cc(N2CCn3c(nc4ccccc43)C2)ccc1C
#24 COCCn1c(CCC(=O)Nc2cc(C)ccc2C)nc2cccnc21
#25 COC(=O)c1ccc(NC(=O)N2Cc3c(sc4c3CCCC4)-n3cccc3C2c2ccc(N(C)C)cc2)cc1 (configuration not stated)
#26 CCN(C(=O)CSc1ncccn1)c1ccccc1
#27 C#CCSc1n[nH]c(C(C)(C)C)n1
#28 COc1ccc(S(=O)(=O)N2C3CCC2CC(NC(=O)C2CC2)C3)cc1 (configuration not stated)
#29 CCc1ccc(N2CC(C(=O)OCC(=O)Nc3ccccc3)CC2=O)cc1 (configuration not stated)
#30 Cc1ccc2nc(-c3ccc(NC(=O)Cc4ccccc4)cc3)sc2c1

compound no.	21	22	23	24	25	26	27	28	29	30
Sa growth inh second temp	88.3	·	·	98.3	·	99.5	89.5	79.6	73.1	91.4
GIV-Gai inh	·	102.0	101.6	95.2	104.3	·	105.5	103.4	108.5	108.5
Sa growth inh	99.4	·	·	101.3	·	105.1	102.1	93.6	94.4	112.7
HCMV NEC inh	-4.8	-18.0	-3.9	4.6	-19.7	7.9	-20.4	-7.2	1.0	-30.9

#31 CN1CCN(CCNC(=O)c2cc3c(=O)n(C)c4ccccc4c3n2C)CC1
#32 O=C(c1ccc2c(Cl)c3c(nc2c1)CCC3)N1CCCCC1
#33 C=CCNC(=O)C1=Cc2cc(Cl)ccc2OC=C1
#34 Cc1ccccc1OCC(=O)NC1CCCCC1NC(=O)COc1ccccc1C (configuration not stated)
#35 Cc1ccc(Cc2nc3ccccc3nc2SCC(=O)NCc2ccc(F)cc2)cc1
#36 CC1(C)CN(c2cccc(C#N)c2)C1=O
#37 COc1cccc(N2C(=O)c3cc(C)nn3CC2(C)C(=O)NCc2ccccc2)c1 (configuration not stated)
#38 COc1ccc(C2c3c(n(C)c4ccccc34)C(=O)N2CC(=O)NCCc2c[nH]c3ccccc23)cc1 (configuration not stated)
#39 COc1ccc(-c2cn3nc(N4CCC(C(=O)Nc5ccc(Cl)cc5C)CC4)sc3n2)cc1
#40 COc1ccccc1-n1c(C23CC4CC(CC(C4)C2)C3)n[nH]c1=S

compound no.	31	32	33	34	35	36	37	38	39	40
Sa growth inh second temp	93.1	82.8	·	96.0	90.9	·	·	·	89.6	88.4
GIV-Gai inh	105.4	103.0	102.0	·	102.2	94.8	99.4	108.8	95.9	102.6
Sa growth inh	103.5	94.1	·	100.1	110.8	·	·	·	102.1	98.0
HCMV NEC inh	·	4.6	-11.9	-2.3	·	-23.3	10.2	1.2	·	·

#41 CC(Oc1ccc(C#N)cc1)C(=O)NN (configuration not stated)
#42 CC1CN(C(=O)c2ccccc2Nc2ccc(SC(F)F)cc2)CC(C)O1 (configuration not stated)
#43 CC(C)(C)c1ccc(-c2nc3nc(CNc4ccc(Br)cc4)cc(=O)n3[nH]2)cc1
#44 COc1ccc(-n2nc(C(=O)NCc3ccco3)c3c4ccccc4n(C)c3c2=O)cc1
#45 COc1ccccc1N1CCN(CCCNC(=O)c2cnn(-c3ccccc3)c2C2CCN(C(=O)OC(C)(C)C)CC2)CC1
#46 Cc1ccc2c(cnn2C(=O)CCCC(=O)NC(C)c2ccccc2)c1 (configuration not stated)
#47 CC(C)(C)c1ccc(-c2nnc(SCc3cccc(C(N)=O)c3)n2-c2ccc3c(c2)OCO3)cc1
#48 Cc1ccccc1Nc1c(-c2c(F)cccc2Cl)nc2ccc(Br)cn12
#49 Cc1nsc(Nc2ccccc2)c1C#N
#50 CC1=CC(C)=NS(=O)(=O)N1

compound no.	41	42	43	44	45	46	47	48	49	50
Sa growth inh second temp	92.5	83.0	·	94.5	83.2	·	58.6	90.3	95.6	87.2
GIV-Gai inh	·	·	116.1	108.3	106.4	105.9	105.8	102.4	·	·
Sa growth inh	92.7	86.8	·	91.8	88.9	·	76.9	102.0	96.3	81.0
HCMV NEC inh	-0.9	-27.2	10.6	9.6	·	-5.0	-32.4	4.9	-5.6	-29.0

Single records, from the list above. Order of values: Sa growth inh second temp | GIV-Gai inh | Sa growth inh | HCMV NEC inh
Record of `CC1CN(C(=O)c2ccccc2Nc2ccc(SC(F)F)cc2)CC(C)O1` (configuration not stated) : 83.0 | · | 86.8 | -27.2
Record of `CC(Oc1ccc(C#N)cc1)C(=O)NN` (configuration not stated) : 92.5 | · | 92.7 | -0.9
Record of `COc1ccc(-n2nc(C(=O)NCc3ccco3)c3c4ccccc4n(C)c3c2=O)cc1` : 94.5 | 108.3 | 91.8 | 9.6
Record of `Cc1ccccc1Nc1c(-c2c(F)cccc2Cl)nc2ccc(Br)cn12` : 90.3 | 102.4 | 102.0 | 4.9
Record of `CC1=CC(C)=NS(=O)(=O)N1` : 87.2 | · | 81.0 | -29.0

Next structures.
#51 COc1ccc(C)cc1-n1nnnc1SCc1nc2sc3c(c2c(=O)[nH]1)CCC3
#52 Cc1ccc(CNC(=O)Cc2c(C(=O)O)c(C)cn2C)cc1
#53 CCOc1cccc2cc(C(N)=O)/c(=N/c3sc4c(c3C(N)=O)CCCC4)oc12
#54 COc1cccc(C(=O)N(Cc2ccc(N(C)C)cc2)Cc2ccco2)c1
#55 CCOC(=S)SCc1c(C)c(C)c(C)c(C)c1C
#56 Cc1nnsc1C(=O)N1CCc2[nH]c3ccc(F)cc3c2C1
#57 C=CCNC(=O)CN1C(=O)C(CC)Oc2ccccc21 (configuration not stated)
#58 Cc1cc(OCc2nc(C)c(C(=O)Nc3nc(-c4ccccc4)cs3)s2)ccc1Cl
#59 CC1=CC2(CCC(C)CC2C(=O)NCc2ccc(Cl)cc2)OC1=O (configuration not stated)
#60 CCCN(C(=O)c1ccccc1N)c1c(C)n(C)n(-c2ccccc2)c1=O

compound no.	51	52	53	54	55	56	57	58	59	60
Sa growth inh second temp	87.8	92.3	·	73.6	82.5	82.0	92.8	·	90.9	100.8
GIV-Gai inh	·	102.6	102.1	103.2	103.0	99.4	97.6	102.7	105.8	103.8
Sa growth inh	81.0	118.8	·	105.4	97.1	98.0	93.0	·	99.6	95.5
HCMV NEC inh	-24.6	·	-15.1	-7.4	-30.2	-12.3	-12.3	-14.2	·	-0.6

In a second layout: 2 of the compounds above.
Values run as follows: Sa growth inh second temp	GIV-Gai inh	Sa growth inh	HCMV NEC inh
(19) CC1CCCC(C)N1C(=O)Nc1ccc(Cl)c(Cl)c1 (configuration not stated)
 : 75.1	·	94.0	-16.0
(23) CC(=O)Nc1cc(N2CCn3c(nc4ccccc43)C2)ccc1C
 : ·	101.6	·	-3.9

(cont.)
#61 Cc1ccc(-n2c(N)c(C(N)=O)sc2=S)cc1C
#62 CCCCN1C(=O)c2ccc(C(=O)C(C#N)c3nc4ccccc4n3C)cc2C1=O (configuration not stated)
#63 CC1CC(C)CN(CCN)C1 (configuration not stated)
#64 Cc1ccc(NC(=O)Cc2coc3ccc(C(C)C)cc23)c(C)c1
#65 CCc1ccc(NCc2cc3cc4c(cc3n(CC(=O)Nc3ccccc3Cl)c2=O)OCO4)cc1
#66 CC(=O)OC(C#CCN1CCOCC1)c1ccccc1 (configuration not stated)
#67 Cc1ccc(S(=O)(=O)C2(C(=O)O)CC2)cc1C
#68 COC(=O)c1cc(-c2ccc(N)cc2)nc2ccc(C)cc12
#69 C=CCn1c(=O)sc2cc(NC(C)=O)ccc21
#70 O=C(NC(C(=O)c1ccccc1)n1cccnc1=O)c1ccccc1 (configuration not stated)

compound no.	61	62	63	64	65	66	67	68	69	70
Sa growth inh second temp	63.4	97.1	88.5	91.1	91.7	80.1	84.9	96.3	82.3	89.9
GIV-Gai inh	96.1	·	104.3	103.1	99.0	100.7	99.1	114.1	·	98.1
Sa growth inh	81.7	96.7	101.1	111.2	108.8	98.5	86.4	72.2	130.1	86.5
HCMV NEC inh	-100.9	-26.3	-11.6	-15.6	·	-25.6	-13.5	16.0	-11.0	-19.0

Molecules shown so far with a tert-butyl group, in the order listed:
#27 C#CCSc1n[nH]c(C(C)(C)C)n1
#43 CC(C)(C)c1ccc(-c2nc3nc(CNc4ccc(Br)cc4)cc(=O)n3[nH]2)cc1
#45 COc1ccccc1N1CCN(CCCNC(=O)c2cnn(-c3ccccc3)c2C2CCN(C(=O)OC(C)(C)C)CC2)CC1
#47 CC(C)(C)c1ccc(-c2nnc(SCc3cccc(C(N)=O)c3)n2-c2ccc3c(c2)OCO3)cc1

compound no.	27	43	45	47
Sa growth inh second temp	89.5	·	83.2	58.6
GIV-Gai inh	105.5	116.1	106.4	105.8
Sa growth inh	102.1	·	88.9	76.9
HCMV NEC inh	-20.4	10.6	·	-32.4

Other compounds follow:
#71 Cc1ccc(/C=N/N=C2/NC(=O)CS2)o1
#72 Cc1ccc(-c2nnc(Nc3ccccc3)c3ccccc23)cc1S(=O)(=O)N1CCCCC1
#73 Cc1nc2cc(-c3ccc(Cl)cc3)nn2c(C)c1CCC(=O)NO
#74 CCCCC(=O)OC1=C(C(=O)c2ccccc2)N(C)S(=O)(=O)c2ccccc21
#75 CN(CC(=O)N1CCCC1)c1nnc(N2CCCC2=O)s1
#76 Cc1cccc(C(=O)Nc2ccc3nc(SCC(=O)N4CCCC4)sc3c2)c1
#77 CCCN1CCN(CCCNC(=O)Nc2ccc3c(c2)N(Cc2ccc(C)cc2)C(=O)CS3)CC1
#78 O=C1C2CNC3(C(=O)Nc4ccccc43)C2C(=O)N1Cc1ccccc1 (configuration not stated)
#79 Cc1cc(C)n(CCCC(=O)NCCn2nccc2C)n1
#80 Nc1c(-c2nc(-c3ccc4c(c3)OCO4)cs2)nnn1-c1cc(F)ccc1F

compound no.	71	72	73	74	75	76	77	78	79	80
Sa growth inh second temp	84.4	88.9	62.8	60.2	92.7	83.3	87.8	101.3	81.0	·
GIV-Gai inh	107.6	98.6	102.2	97.1	104.8	103.7	96.5	102.4	98.0	111.7
Sa growth inh	95.2	68.2	105.8	58.4	93.7	110.8	98.7	97.0	102.3	·
HCMV NEC inh	-42.3	·	-4.4	10.2	·	-16.5	-2.9	23.0	-4.7	-23.3
